VDR inhibitor: Inhibitors of the vitamin D receptor (VDR): qHTS; Vitamin D3 receptor (Homo sapiens), P11473; VDR-SRC2-3 peptide fluorescence polarization, 2 h; Potency, µM, for inactives: max response, negative = inhibition, usual class: inhibitors; 400,000 tested, 0.93% active; AID 504847, 2011; active = well fitted inhibition curve with a large enough effect; inconclusive = small, poorly fitted or top-dose-only effect, or another doubt; inactive = no such curve, though single readings can be large or run the other way; note: series mostly up to about 120 µM
Target sequence (P11473 whole entry, looked up): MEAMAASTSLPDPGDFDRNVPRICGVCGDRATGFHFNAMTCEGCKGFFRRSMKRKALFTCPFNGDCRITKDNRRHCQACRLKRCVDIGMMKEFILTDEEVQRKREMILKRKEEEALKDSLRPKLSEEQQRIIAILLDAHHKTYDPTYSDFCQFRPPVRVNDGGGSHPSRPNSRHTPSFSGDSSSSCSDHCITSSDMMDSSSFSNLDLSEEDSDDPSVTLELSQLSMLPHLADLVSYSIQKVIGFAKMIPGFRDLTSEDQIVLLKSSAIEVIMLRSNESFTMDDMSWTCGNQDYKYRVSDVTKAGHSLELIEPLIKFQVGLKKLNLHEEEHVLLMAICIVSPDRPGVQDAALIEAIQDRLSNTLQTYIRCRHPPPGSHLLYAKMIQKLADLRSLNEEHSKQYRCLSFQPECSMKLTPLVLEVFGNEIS
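Fluorescence polarization assay measuring small-molecule disruption of VDR binding to the coregulator peptide SRC2-3. Compounds were pin-transferred (23 nl) into the reagent mix and incubated 2 h at room temperature before reading.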
An asterisk follows results filed as active; ? = inconclusive; & = joins results of further samples; [ ] = dose if it differs, or a comment. % is set by controls: 0 for no effect and ±100 for the full control effect; potency is the fitted concentration of half-maximal effect.

SMILES	VDR inhibitor
Cc1cc2oc(C(=O)NCc3ccc4c(c3)OCO4)c(C)c2cc1C	-22%
CC1(C)C(=O)Nc2ccccc2N1C(=O)COc1ccccc1C#N	2%
COc1ccc(C)cc1NC(=O)C(=O)NCc1ccncc1	18%
Cc1cc(C)cc(NC(=S)N(Cc2ccc(Br)cc2)Cc2ccc(C(=O)O)cc2)c1	-12%
CCCN1CCN(CCCNC(=S)Nc2ccc(F)cc2)CC1	8%
O=C(NCc1cc(F)cc(C(F)(F)F)c1)C1CCC(=O)N(C2CCCC2)C1 (stereo not given)	0%
COc1ccc(CCNC(=O)C(C)Sc2ccccc2)cc1OC (stereo not given)	10%
CCOC(=O)c1cc(C)n(CCc2ccccc2)c1C	9%
CCn1c(SCC(=O)NNC(=O)c2ccc(C)cc2)nnc1C1CC1	4%
Cc1ccc2c(c1)-c1onc(C(=O)N(C)c3ccc(F)cc3)c1CO2	-4%
Cc1ccccc1OCC(O)CN1CCCCC1 (stereo not given)	9%
CCN(CC)CC(O)c1cccn1-c1ccc(CNC(=O)NC(C)C)cc1 (stereo not given)	12%
CC(=O)c1cnc(Nc2nc(C)c3cc(C)c(C)cc3n2)nc1C	10%
CCn1c(CN2CCC(C)CC2)nc2cc(NC(=O)c3cccc([N+](=O)[O-])c3)ccc21	-2%
O=C(NC1CCCCC1)N1CCN(C(c2ccccc2)c2ccccc2)CC1	4%
Cc1ccc(C(=O)OCC(=O)Nc2cccc(S(=O)(=O)N3CCOCC3)c2)o1	5%
O=C(COc1ccccc1)NCC(=O)Nc1ccncc1	-27%
Cc1ccc(C(=O)NCC(=O)N(C)CC(=O)Nc2c(Cl)cccc2Cl)s1	-11%
COc1ccc(S(=O)(=O)N2CCN(CC(=O)NCC3(N4CCOCC4)CCCCC3)CC2)cc1	12%
O=c1[nH]oc2cc(Cl)ccc12	-25%
COc1cccc(-c2csc(NC(=O)Nc3ccccc3)n2)c1	0%
Cc1ccc(C)c(S(=O)(=O)NCCOc2nc(NC(C)C)nc(NC(C)C)n2)c1	-6%
Cc1ccc(SCC(=O)N(C)C2CCS(=O)(=O)C2)c(C)c1 (stereo not given)	-5%
COc1ccc(-c2nnc3n2CCCCC3)cc1OC	-19%
COc1cccc2cc(C(=O)N3CCN(c4ccccn4)CC3)c(=O)oc12	-7%
COc1ccc(N2CCN(S(=O)(=O)c3ccc(OC)c(C(=O)N4CCOCC4)c3)CC2)cc1	-12%
Cc1ccc(-n2c(=O)c3ccc(C(=O)NCc4ccccc4Cl)cc3n(CC(=O)Nc3ccc(C)cc3C)c2=O)cc1	7%
Cc1ccc(S(=O)(=O)NCc2nc3ccccc3c(=O)n2N)cc1	6%
O=C(O)CCCCCNC(=O)c1ccc(Br)cc1	18%
COc1ccc(CNC(=O)CCc2c[nH]c3ccccc23)cc1	-3%
Cc1cc2c(cc1C)C(c1cccc([N+](=O)[O-])c1)CC(=O)N2 (stereo not given)	13%
O=C(O)c1ccc(CNCc2c(Cl)cccc2Cl)cc1	-15%
Cc1nc2scc(C)n2c(=O)c1S(=O)(=O)Nc1ccc(N2CCOCC2)c(Cl)c1	-24%&2%
CC1=NOC(=O)/C1=C/c1ccc2c(c1)OCO2	32µM*
COc1ccc(CCNC(=O)COc2ncnc3cc([N+](=O)[O-])ccc23)cc1	8%
Nc1ccc(C(=O)N/N=C/c2ccccc2)cc1	9%
Cc1cc(NC(=O)COc2coc(CN3CCN(c4ccccc4F)CC3)cc2=O)no1	-8%
Cc1ccccc1OCC(=O)Nc1ccc(Cc2ccncc2)cc1	?
COc1ccc(NC(=O)CCCSc2ccccc2)cc1	8%
COc1ccccc1N1CCN(S(=O)(=O)c2ccc3[nH]c4c(c3c2)CCCC4)CC1	6%
Cc1cccc(-c2cnn(-c3cccc([N+](=O)[O-])c3)c2N)c1	6%
O=P(O)(O)OC1[C@H](O)[C@H](OP(=O)(O)O)C(OP(=O)(O)O)[C@H](OP(=O)(O)O)[C@H]1O (stereo not given in full)	20%
COc1cccc(Cn2c(=O)c(-c3cn(C)c4ccccc34)nc3cnc(N4CCNCC4)nc32)c1	4%
N#Cc1ccc(CSc2nnc(COc3ccccc3)n2-c2ccccc2)cc1	-1%
O=C(CCC1CCCCC1)NCCS(=O)(=O)N1CCN(c2ccccc2F)CC1	1%
CC1(C)Cc2c(sc3nc(SCC(=O)O)[nH]c(=O)c23)CO1	31%[activator]
Cn1c(=O)c2c(nc(NCCCO)n2Cc2cccc(Br)c2)n(C)c1=O	-11%
Cc1ccc(Nc2c(-c3ccccc3)nc3cnccn23)cc1	2%
O=C(COC(=O)CN1CCSC1=O)Nc1ccc(F)cc1Cl	-12%
Cc1cccc(N(Cc2ccccc2)C(=O)CN2C(=O)NC3(CCCCC3C)C2=O)c1 (stereo not given)	-16%
CCC(=O)/C=C1/Sc2ccccc2N1CC	?
COc1ccc2cnn(-c3ccc(C)cc3)c(=O)c2c1OC	21%
Cc1cc(S(=O)(=O)N2CCCC(N(C)CCc3ccccn3)C2)c(C)cc1Cl (stereo not given)	?
C/C(=N/NC(=O)c1cc2ccccc2cc1O)c1ccco1	3%
Cc1ccccc1CN1CCCOCCS1(=O)=O	-8%
COc1ccc(-n2c(SC)nc(O)c(Cc3ccccc3)c2=O)cc1	-13%
CN(CC(=O)Nc1ccc(F)cc1)C(=O)COc1ccc(C(=O)c2ccccc2)cc1	-12%
CCc1cccc(NC(=O)CCc2c(C)nn(-c3ccc(N4CCCCC4)nn3)c2C)c1	-7%
Cc1ccc(CN(Cc2ccco2)C(=O)c2oc3cc(Br)ccc3c2C)cc1	5%
CC(C)OC(=O)CSc1nnc(CNc2ccc(Cl)cc2)n1C	15%
The listing continues.
SMILES	VDR inhibitor
CCOc1cc(NC(=O)c2ccccc2[N+](=O)[O-])c(OCC)cc1NC(=O)CC(C)C	7%
Cc1ccc2cc(CCNC(=O)c3ccc(S(=O)(=O)N4CCOCC4)cc3)c(=O)[nH]c2c1C	-20%
COc1ccc2c(CNCCc3cccs3)c(C(=O)O)n(Cc3ccc(F)cc3Cl)c2c1	-5%
CC(=O)c1c(COC(=O)c2ccncc2)nc2ccccc2[n+]1[O-]	0%
CC(CCc1ccccc1)NC(=O)c1ccccc1 (stereo not given)	13%
COc1cc(C2NC(=O)NC(C)=C2C(=O)OC2CCCC(C)C2)cc(Br)c1O (stereo not given)	-5%
Brc1ccc(COn2ccnc2)cc1	-4%
C/C(=N\OC(=O)C1CC1)C1CC1c1ccc(F)cc1 (stereo not given)	23%
CC(C)(C)c1csc(NC(=O)c2ccncc2)n1	19%
Cc1ccc(Cn2c(CCNc3nc(-c4ccc(Cl)c([N+](=O)[O-])c4)cs3)nc3cc(Cl)c(Cl)cc32)cc1	-11%
Cn1c(=O)c([N+](=O)[O-])c(-n2cnc3ccccc32)c2ccccc21	20µM*
COc1ccc(CCn2c(=N)c(C(=O)NCCN3CCOCC3)cc3c(=O)n4ccccc4nc32)cc1OC	-2%
O=C(CNC(=O)N1CC(=O)Nc2ccccc21)Nc1ccccc1F	11%
Cc1cc(=O)[nH]c(N/N=C/c2ccco2)n1	-9%
O=C(N/N=C/c1ccccc1Cl)c1ccncc1	-21%
Cc1ccc(CCC(=O)Nc2cc(Cl)ccc2Cl)o1	-5%
O=C(Nc1cccnc1)c1ccc(Cl)c(S(=O)(=O)N2CCCCCC2)c1	-7%
Cc1cc(C)nc(SCCn2c(N(C)Cc3ccccc3)nc3c2c(=O)n(C)c(=O)n3C)n1	6%
CC1(C)Cc2c(c(N3CCOCC3)nc3snc(N)c23)CO1	?
COc1ccc(CCC2(C)NC(=O)N(C(C)C(=O)Nc3ccccc3F)C2=O)cc1 (stereo not given)	-6%
O=c1[nH]c(NCCCO)nc2c1C1(CCCC1)Cc1ccccc1-2	-4%
CN(C)C(=O)COC(=O)c1cccc(S(=O)(=O)Nc2ccc(OCc3ccccc3)cc2)c1	-8%
CCCCC/C=C\C[C@@H](O)/C=C/C=C\C/C=C\CCCC(=O)O	-14%&7%
COc1cc(N)c(Cl)cc1C(=O)OCCN1CCCCC1	-2%&-2%
Cc1cccc(N2C(=O)N3[C@H](c4ccc(F)cc4)[C@@H]4C(=O)N(C5CCCCC5)C(=O)[C@@H]4[C@]3(Cc3ccc(Cl)cc3)C2=O)c1	0%
CCOc1ccccc1NC(=O)N1CCC2(CC1)Oc1ccccc1C(=O)N2Cc1ccccc1F	-3%
O=C(NC1CCCC1)C(c1ccncc1)N(C(=O)c1csnn1)c1ccccc1F (stereo not given)	-2%
O=C(Nc1ncn[nH]1)c1ccc(Cl)c(Cl)c1	?
Fc1ccc(NC(=S)NCCc2ccccn2)cc1	5%
O=C(NCCc1ccccc1Cl)C1CCC(=O)N(CCCc2ccccc2)C1 (stereo not given)	-2%
Cc1nn(C)cc1CNC(=O)C1CCC(=O)N(CC2CCCCC2)C1 (stereo not given)	-1%
Cc1sc2ncnc(OCC(=O)NC(C)C)c2c1C	12%
Cc1ccc(-c2csc(N(CCO)CCCn3c(C(F)(F)F)nc4cc(C(F)(F)F)ccc43)n2)cc1	-12%
COc1ccc(CC(=O)N/N=C(\C)CC(=O)Nc2cccc(F)c2)cc1	-7%
CCCCCN(C(=O)CCC(=O)OCc1ccc(C(C)C)cc1)c1c(N)n(CCCC)c(=O)[nH]c1=O	-14%
O=C(NCC1CCCN(C(=O)NCc2ccccc2)C1)c1ccc2c(c1)OCO2 (stereo not given)	6%
O=C(Nc1nc(-c2ccc3c(c2)OCCO3)cs1)C1CC(=O)N(c2ccc3c(c2)OCCO3)C1 (stereo not given)	-10%
Cc1c(Cl)cccc1NC(=O)CNC(=O)c1ccco1	-25%
Cc1[nH]c2ccccc2c1C(=O)CSc1nccc(=O)[nH]1	-12%
CC[C@H](C)[C@H](NC(=O)CNC(=O)[C@H](CCCNC(=N)N)NC(=O)[C@H](CO)NC(=O)[C@H](C)NC(=O)[C@H](Cc1ccc(O)cc1)NC(=O)[C@H](Cc1c[nH]c2ccccc12)NC(=O)[C@H](C)NC(=O)[C@@H]1CCCN1C(=O)[C@H](CC(N)=O)NC(=O)[C@@H](NC(=O)[C@H](CC(=O)O)NC(=O)[C@@H]1CCCN1C(=O)[C@@H](NC(=O)[C@H](CCCNC(=N)N)NC(=O)[C@@H](NC(=O)[C@H](CCC(=O)O)NC(=O)[C@H](CCSC)NC(=O)[C@H](CO)NC(=O)[C@H](Cc1cnc[nH]1)NC(=O)[C@H](CCCNC(=N)N)NC(=O)[C@H](Cc1cnc[nH]1)NC(=O)[C@@H](NC(=O)[C@H](CCCNC(=N)N)NC(=O)[C@@H](N)CO)[C@@H](C)O)[C@@H](C)CC)[C@@H](C)O)[C@@H](C)CC)C(=O)N[C@@H](CCCNC(=N)N)C(=O)N1CCC[C@H]1C(=O)N[C@H](C(=O)NCC(=O)N[C@@H](CCCNC(=N)N)C(=O)N[C@@H](Cc1ccccc1)C(N)=O)C(C)C	-1%
COCC(=O)N1CCC(Oc2ccc(C(=O)NCCc3ncccc3C)cc2)CC1	-5%
Cc1ccc(NC(=O)N(CCC#N)Cc2ccccc2)cc1	-15%
O=C1CS(=O)(=O)C2(C(=O)N(Cc3ccc(F)cc3)c3ccccc32)N1c1cccc(C(F)(F)F)c1 (stereo not given)	7%
COc1ccc(-c2c(NC(=O)c3ccco3)oc3ccc(Cl)cc3c2=O)cc1	-22%
CCc1nnc2c(N3CCN(c4cc(Cl)ccc4C)CC3)nc3ccccc3n12	14%
Fc1ccc(Cn2cc(C(=S)N3CCOCC3)c3ccccc32)cc1	-2%
CN1CCN(C(=O)c2cc(Cl)cc(Cl)c2)CC1	5%
CCN(CC)C(=O)Oc1ccc2oc(=O)cc(-c3cc4cccc(OC)c4o3)c2c1	0%
Cc1occc1-c1nnc(SCC(N)=O)o1	7%
CCC(C)(O)C(=O)N[C@H]1CCCN1C(=O)/C=C/c1ccccc1 (stereo not given in full)	-24%
CSc1ncccc1C(=O)OCC(=O)N(C)C	?
COc1cc(C2c3c(-c4c(C)cc(C)cc4O)n[nH]c3C(=O)N2Cc2ccco2)cc(OC)c1OC (stereo not given)	-11%
CC(C)(CNC(=O)c1ccc(S(=O)(=O)Nc2ccccc2F)cc1)N1CCOCC1	-9%
CC(C)CN(C(=O)CSc1nnnn1-c1ccccc1)c1c(N)n(CC(C)C)c(=O)[nH]c1=O	-1%
O=C(c1ccccn1)N1CCCC(N2CCN(c3ccccc3)CC2)C1 (stereo not given)	16%

These rows are one share of the data. The share of hits here may be higher or lower than overall.
